NPR1 antag: Natriuretic polypeptide receptor (hNpr1) antagonism - Primary qHTS; Potency, µM (top dose mostly 46.3 µM), without a hit: at the top dose activity change, negative = inhibition, usual class: inhibitors; 76,000 tested, 1.6% active; HEK293 hNpr1 GloSensor cGMP, ANP-stimulated luminescence; active = well fitted inhibition curve with a large enough effect; inconclusive = small, poorly fitted or top-dose-only effect; inactive = no such curve, though single readings can be large or run the other way;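 further: nearly all actives have a fitted effect of over 60% in size; nearly all hits also lower the signal before the agonist is added; a reference antagonist and vehicle were the controls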
Target sequence (P16066 whole entry, looked up): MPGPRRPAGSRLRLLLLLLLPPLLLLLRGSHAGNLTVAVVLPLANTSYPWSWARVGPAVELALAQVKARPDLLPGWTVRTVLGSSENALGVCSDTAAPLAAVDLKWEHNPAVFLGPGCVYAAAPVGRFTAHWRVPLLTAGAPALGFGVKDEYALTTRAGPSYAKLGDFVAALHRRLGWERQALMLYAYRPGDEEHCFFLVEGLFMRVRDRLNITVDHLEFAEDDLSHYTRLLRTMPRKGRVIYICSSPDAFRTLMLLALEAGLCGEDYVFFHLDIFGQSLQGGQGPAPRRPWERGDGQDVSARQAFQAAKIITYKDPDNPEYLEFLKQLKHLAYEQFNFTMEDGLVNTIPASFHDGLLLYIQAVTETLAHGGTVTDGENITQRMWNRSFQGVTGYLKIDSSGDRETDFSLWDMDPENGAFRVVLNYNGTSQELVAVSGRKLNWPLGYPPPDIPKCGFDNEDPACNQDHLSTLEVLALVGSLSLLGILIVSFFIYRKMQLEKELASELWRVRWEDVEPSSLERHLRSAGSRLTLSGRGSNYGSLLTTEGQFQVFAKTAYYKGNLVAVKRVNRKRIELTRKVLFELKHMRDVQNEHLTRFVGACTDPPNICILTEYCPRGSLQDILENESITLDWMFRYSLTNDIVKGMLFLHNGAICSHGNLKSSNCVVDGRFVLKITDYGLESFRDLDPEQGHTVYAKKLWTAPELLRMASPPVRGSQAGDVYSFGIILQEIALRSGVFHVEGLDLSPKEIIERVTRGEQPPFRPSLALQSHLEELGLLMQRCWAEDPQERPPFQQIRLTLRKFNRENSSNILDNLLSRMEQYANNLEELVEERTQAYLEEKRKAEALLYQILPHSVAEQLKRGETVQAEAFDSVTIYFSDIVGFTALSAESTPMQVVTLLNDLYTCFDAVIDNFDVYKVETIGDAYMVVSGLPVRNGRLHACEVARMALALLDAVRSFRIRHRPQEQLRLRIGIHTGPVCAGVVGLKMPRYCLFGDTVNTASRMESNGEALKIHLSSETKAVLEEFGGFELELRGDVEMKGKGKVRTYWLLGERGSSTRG
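HEK293 cells stably expressing human Npr1 and cGMP GloSensor pGS-40F, loaded 2 h with 2% GloSensor reagent, given compound 30 min at room temperature. Luminescence read before and 20 min after 0.1 nM hNppA.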
Active calls of the source: *; ? = inconclusive; & = joins results of further samples; [ ] = another dose, or the depositor's remark. On the % scale 0 is the no-effect control and ±100 the full control effect; potency means the concentration at half of the fitted maximal effect. This is a subset (hit frequency here may not be typical).

SMILES	NPR1 antag
O=[S+]1([O-])NCC2(CCN(Cc3ccsc3)CC2)Nc2ccccc21	5%
Cc1ccc(C2Cn3nnc(C(=O)N4CCC(C(=O)NC5CCCC5)CC4)c3CO2)cc1 (centres undefined)	1%
COc1ccc(CNC(=O)[C@@H]2CCC[C@@H](NC3CCC3)CN(C)C(=O)C2)cc1	-1%[70.6 µM]
CNC(=O)c1cc(-c2ccccc2OC)cc2c1OCCN2Cc1cccnc1	-15%[70.6 µM]
O=C(N1CCN(S(=O)(=O)c2ccc3c(c2)CCC3)CC1)N1CC2CC(C1)[C@H]1CCCC(=O)N1C2 (some centres undefined)	-7%
CCCc1nc(C2CC(=O)N(C3CCCCC3)C2)no1 (centres undefined)	5%
Cc1noc(C)c1-c1cc2c(c(-c3ccccc3)c1)C(=O)N(C)C2	28µM*
COc1ccc(C(=O)N2CCC3(CC2)N=C(c2ccc(Cl)cc2)NO3)cc1OC	11µM*
COc1ccc(C(=O)N2CCCCCCNC(=O)[C@@H]3C[C@@H](c4nc(C(C)C)no4)C[C@@H]32)cc1	1%
COc1cccc(CN2C(=O)OC3(CCN(C(=O)c4ccn(C)n4)CC3)C2(C)c2cccnc2)c1 (centres undefined)	1%
COc1ccc(-c2noc([C@@H]3CCCN3C(=O)c3ccccn3)n2)cc1	-5%
CC1(c2ccccc2)N(Cc2cccnc2)C(=O)OC12CCN(C(=O)Cc1ccccc1)CC2 (centres undefined)	8%

Entries shown so far that have nitrogen in an aromatic ring (eight):
SMILES	NPR1 antag
Cc1ccc(C2Cn3nnc(C(=O)N4CCC(C(=O)NC5CCCC5)CC4)c3CO2)cc1 (centres undefined)	1%
CNC(=O)c1cc(-c2ccccc2OC)cc2c1OCCN2Cc1cccnc1	-15%[70.6 µM]
CCCc1nc(C2CC(=O)N(C3CCCCC3)C2)no1 (centres undefined)	5%
Cc1noc(C)c1-c1cc2c(c(-c3ccccc3)c1)C(=O)N(C)C2	28µM*
COc1ccc(C(=O)N2CCCCCCNC(=O)[C@@H]3C[C@@H](c4nc(C(C)C)no4)C[C@@H]32)cc1	1%
COc1cccc(CN2C(=O)OC3(CCN(C(=O)c4ccn(C)n4)CC3)C2(C)c2cccnc2)c1 (centres undefined)	1%
COc1ccc(-c2noc([C@@H]3CCCN3C(=O)c3ccccn3)n2)cc1	-5%
CC1(c2ccccc2)N(Cc2cccnc2)C(=O)OC12CCN(C(=O)Cc1ccccc1)CC2 (centres undefined)	8%

Remaining list, next part
SMILES	NPR1 antag
Cc1cc(C)c(CNC(=O)c2nc(-c3ccccc3O)cc3c2ccn3C(C)C)c(=O)[nH]1	-1%[70.6 µM]
COc1ccc(-c2ccc3ncn(C)c(=O)c3n2)cc1OC	0%[70.6 µM]
CN1[C@@H](CCC(=O)NCc2cccnc2)CNC(=O)[C@@H]2[C@H]1CCN2Cc1ccc(O)cc1	6%
O=C(Nc1ccc(F)cc1)c1cc2n(n1)CC(c1ccc3c(c1)OCO3)OC2 (centres undefined)	13µM*
CCC(C)C1=NS(=O)(=O)c2cc(NC(=O)C3CC3)ccc2N1c1ccccc1 (centres undefined)	-11%
CN1C[C@H](C(=O)Nc2cccc(Cl)c2)C[C@H]1c1cccc(C(F)(F)F)c1	-22%[70.6 µM]
COCCN1CCNc2nc(COc3ccc(Cl)cc3OC)n(Cc3ccccc3)c2C1=O	-7%
COc1ccccc1-c1cn2c(n1)CO[C@@H](CNC(=O)c1ccc(Cl)cc1)C2	-10%[70.6 µM]
Cc1ccc(-c2nnc(C3CN(C(=O)c4ccc(C)s4)CC34CCOCC4)o2)cc1 (centres undefined)	4%
COC(=O)c1ccccc1NC(=O)Cn1cccc1-c1nc(-c2ccccc2)no1	-3%
Cc1nc2c(c(-c3ccc(O)cc3)n1)CN(C(=O)Nc1ccccc1)CCC2	1%
COCC1CN(C)CC12CCN(C(=O)C1CC=CC1)CC2 (centres undefined)	-15%
COc1ccc2c(c1)CCN=C2C[C@H]1CN(C(=O)C(=O)O)CC[C@H]1CC(=O)O	3%[70.6 µM]
COc1ccc(C(=O)N2CCC3(CC2)CC(c2nc(C)no2)N(C)C3)cc1F (centres undefined)	4%
Cc1ccc2[nH]c(=O)c(CCC(=O)N3CCN(CC(C)C)CC3)cc2c1	1%
O=C(NCCC1CCN(C(=O)Nc2cccc(F)c2)CC1)c1ccoc1	-1%
CC(C)c1nnc(C2CN(C(=O)CCN3CCOCC3)CC23CCOCC3)o1 (centres undefined)	-2%
CCn1c(CO)nnc1C1CC(NC(=O)c2sccc2N)C1 (centres undefined)	-6%
CC(NC(=O)c1ccc(OC(F)(F)F)cc1)C(=O)N1CCN(c2ccccn2)CC1 (centres undefined)	-3%
Cc1ccc(-c2nc(C3CC(=O)N(C4CCCCC4)C3)no2)s1 (centres undefined)	-29%
Cc1noc(C)c1-c1cc2c(cc(C)n2C)c(NCCCn2ccnc2)n1	2%[70.6 µM]
CN1CCc2c([nH]c3ccccc23)C12CCN(C(=O)c1ccc(Cn3ccnc3)o1)CC2	1%
Cc1ccc(C2Cn3cnc(C(=O)N4CCC(C(=O)NCc5ccc(F)cc5F)CC4)c3CO2)cc1 (centres undefined)	-7%
CCc1nc2nccc(-c3ccc(OC)cc3F)n2n1	6%
CN1CC(=O)N2CCN(Cc3csc(-c4ccccc4)n3)CC2C1=O (centres undefined)	3%
CN1CCCCCC(O)c2cc(C(=O)N3CCN(c4ncccn4)CC3)ccc21 (centres undefined)	-15%
Cc1ccc(C)c(CC(=O)NCc2cc3n(n2)CCN(C(=O)N(C)C)C3)c1	0%
COc1ccc(-c2onc(C)c2C(=O)NCCC(c2ccccc2)c2ccccc2)cc1	-19%
CCn1cc(S(=O)(=O)NCC2Cn3cccc3CN2Cc2ccccc2)cn1 (centres undefined)	-19%
CN(CCc1ccccn1)C(=O)CC1CCCN(c2cnn(CC3CC3)c(=O)c2)C1 (centres undefined)	-1%
CN1CC2(CCN(Cc3ccccc3C#N)CC2)CC(c2ccccc2)C1=O (centres undefined)	1%
COc1ccc(-n2nc(C3CCN(C(=O)Cc4ccc(F)cc4)CC3)[nH]c2=O)cc1	0%&-1%
COc1cc2c(cc1OC)C(CNS(=O)(=O)c1ccc(C)cc1)N(C(=O)NC(C)(C)C)CC2 (centres undefined)	5%
NC(=O)c1cnc2n1CCN(C(=O)c1cccc(Oc3ncccn3)c1)C2	0%
Cc1nc2c(c(-c3ccc(O)cc3)n1)CN(C(=O)C1CC1)CCC2	-24%[70.6 µM]
Cc1noc(-c2ccc(OC3CN(S(=O)(=O)c4c(C)noc4C)C3)cc2)n1	-8%

3 of the entries above in order of the NPR1 antag value, lowest first:
SMILES	NPR1 antag
Cc1ccc(C)c(CC(=O)NCc2cc3n(n2)CCN(C(=O)N(C)C)C3)c1	0%
CN1CC2(CCN(Cc3ccccc3C#N)CC2)CC(c2ccccc2)C1=O (centres undefined)	1%
CN1CC(=O)N2CCN(Cc3csc(-c4ccccc4)n3)CC2C1=O (centres undefined)	3%

Next structures follow.
SMILES	NPR1 antag
COc1ccc(CCC(=O)N2CCC3(CC2)CC(O)CCO3)cc1 (centres undefined)	-19%
COc1ccc(C(=O)NC2CCN(c3cc(-c4ccc(Cl)cc4)[nH]n3)CC2)c(C)c1	?
O=C(CCCc1ccccc1)N1CCC(C2CCNC2)CC1 (centres undefined)	1%
Cc1cnc(-c2cccnc2)n1C1CCN(S(=O)(=O)c2cccc(F)c2)CC1	0%
CNc1nc2c(c(C(=O)N3CCCC3)n1)CN(C(=O)C1CC(C(C)C)=NO1)CC2 (centres undefined)	4%
COc1ccccc1CC(=O)NCC1CCN(c2cnn(C)c(=O)c2)C1 (centres undefined)	4%
O=C(NC1C[C@H]2CC[C@@H](C1)N2C(=O)Cc1cccc(Cl)c1)c1ccncc1 (some centres undefined)	-17%
COc1ccc(-c2noc(-c3nc(Cc4ccc(F)cc4)no3)n2)cc1	-2%
COC[C@@H]1CN(c2ncccn2)C[C@H]1C(=O)NCCn1cccn1	-1%
CCCn1nccc1C(=O)N1CCCC(c2[nH]ncc2Cc2ccccc2)C1 (centres undefined)	-25%
Cc1nc2c(c(-c3ccc(Cl)cc3)n1)CCN(C(=O)Nc1ccc(Cl)cc1)CC2	-24%
CCn1ncc(N2CCCC(CC(=O)NCc3ccccc3C)C2)cc1=O (centres undefined)	-3%
CCCCN1CCC(N(C(=O)NCCc2ccccc2)C2CCOCC2)CC1	2%
Cc1ccc(CN2C[C@@H]3C(=O)N(Cc4ccc5c(c4)OCO5)C(=O)[C@@H]3C2)c(C)c1	?
Cc1ccc(-c2cc(C(=O)NCc3cccnc3)c3c(c2)ncn3C)cn1	-3%[70.6 µM]
COCCN1CC(CO)C2(CCN(C(=O)COc3ccccc3)CC2)C1 (centres undefined)	-8%
CC(C)Cc1cc(C(=O)NCC2CCN(c3cnn(C)c(=O)c3)C2)no1 (centres undefined)	-7%
Cc1cccc(NC(=O)N2CCC(OC3CCN(S(C)(=O)=O)CC3)CC2)c1C	-1%
Cn1ccc(NC(=O)[C@@H]2C[C@@H](c3ccc(F)cc3)N(Cc3ccccc3)C2)n1	35µM*
COc1ccc(CN2CCOc3nc(-c4cccc(C#N)c4)ncc3C2=O)cc1	-26%[70.6 µM]
COc1ccc(CCNC(=O)c2c(OC)cc(=O)n3c2CCCC3)cc1OC	2%
Cc1ccc(C)c(-c2cc3c(=O)n(CCNC(=O)c4c(F)cccc4Cl)ccn3n2)c1	0%
COc1cccc(CNC(=O)c2c(C)noc2-c2cccc(F)c2)c1	-2%
CN1CC(c2ccccc2)CC2(CCN(C(=O)CCc3cccnc3)CC2)C1 (centres undefined)	-1%
Cc1ccc(C)c(C(=O)N2CCN(C(=O)c3nnn4c3COC(c3ccccc3)C4)CC2)c1 (centres undefined)	-22%
O=C(NC1CC(c2cc(=O)[nH]cn2)C1)c1ncc(F)cc1F (centres undefined)	0%
O=C([C@@H]1C[C@H](F)CN1S(=O)(=O)Cc1ccccc1F)N1CCc2ccccc2C1	-2%
CN(Cc1cnn(-c2ccc(F)cc2)c1)C(=O)c1cn(Cc2cccc3ccccc23)nn1	-9%
O=C(Nc1ccc2c(c1)CCC2)c1cc2n(n1)CC(c1ccc(Cl)cc1)OC2 (centres undefined)	-6%
CN(C)c1ccc(C(=O)N2CCC3(CC2)N=C(c2ccc(Br)cc2)NO3)cc1	11µM*
CCc1ccc(C(=O)N2CC(c3nnc(-c4ccc(C)cc4)o3)C3(CCOCC3)C2)cc1 (centres undefined)	-1%
CCC1c2nccn2CCCN1C(=O)c1ccc2c(c1)OCO2 (centres undefined)	7%
COCCN1C(=O)CCC2(CNC(=O)COc3ccc(F)cc3)CCCC=C12 (centres undefined)	3%
COCc1noc(CCNC(=O)c2cc(S(N)(=O)=O)ccc2F)n1	1%
COc1cccc(CN2CCCC(Cc3ncc(C)n3Cc3ccccc3)C2)c1OC (centres undefined)	-23%
CN(Cc1ccno1)Cc1cn(C)nc1-c1ccc(C2CCCCC2)cc1	3%
CCOCCCNC(=O)N1CC(Oc2ccc(-c3nc(-c4ccccc4)no3)cc2)C1	0.56µM*
CN1CCC([C@@H]2CN(C(=O)CCCc3c[nH]c4ccccc34)C[C@H]2C(N)=O)CC1	-1%
Cc1[nH]cnc1-c1nccn1Cc1nnnn1-c1ccccc1	2%
COCCn1ccc2ccc(C(=O)Nc3ccc4c(c3)C(=O)N3CCC[C@H]3C(=O)N4)cc21	-1%
O=C(C1CC1)N1C[C@@H]2OCC(=O)N(Cc3cccnc3)[C@@H]2C1	3%[70.6 µM]
CCOCCCNC(=O)c1nnn2cc(-c3ccccc3)[nH]c(=O)c12	0%
Cc1cccc(C(=O)N2CCC(Cc3nncn3CC3CC3)CC2)c1	-6%
O=C(NCc1ccc(F)cc1)N1CCC(OCCOc2ccc(F)cc2)CC1	-28%
COc1ccc2cc1Nc1ccc(cc1)C[C@H](NCc1ccc(C)o1)C(=O)N(C)[C@@H](C(=O)NCc1ccccc1)C2	-5%
CC(C)Oc1cccc2c1c(NC(=O)c1ccn(C)n1)nn2Cc1ccccc1	-8%
Cc1ccc(C2Cn3nnc(C(=O)N4CCC(C(=O)NCc5cccs5)CC4)c3CO2)cc1 (centres undefined)	3%
CN(C)C1CCN(c2nc(-c3ccncc3)nc3c2CNC3)C1 (centres undefined)	1%
CCN1CCN(CCNC(=O)[C@H]2CCC[C@H]2NC(=O)c2ccncc2)CC1	4%
COC[C@@H]1CN(c2cnccn2)C[C@H]1C(=O)NCC1CC1	-2%
O=C(Nc1ccccc1)N1CC(Oc2ccc(-c3nc(-c4ccccc4)no3)cc2)C1	-22%
CCOc1ccc2c(n1)CCN(C(=O)Nc1cc(C)cc(C)c1)C2	-1%
CCN1C(=O)C2(CCN(S(=O)(=O)Cc3ccccc3)CC2)c2ccccc21	-10%
Cc1cc(CN(C)C(=O)CC(c2cccc(O)c2)c2ccccc2Cl)n[nH]1 (centres undefined)	-11%
O=C1CO[C@H]2CN(Cc3cccnc3)C[C@H]2N1Cc1cccc(C(F)(F)F)c1	-2%[70.6 µM]
Cc1noc(C)c1C(=O)N[C@@H]1CN(c2ncccn2)C[C@H]1CN(C)C	9%
O=C(C[C@@H]1CCNC[C@@H]1Cc1cc(COc2ccccc2)on1)N1CCC(Cc2ccccc2)CC1	-17%
O=C1CCN(Cc2cccc(F)c2)CCOCCN1	-6%
CNC(=O)[C@H]1C[C@H](Oc2ccccc2)CN1S(=O)(=O)Cc1ccccc1	0%
Cc1cccc(OCCc2noc(C3CCN(C(=O)NC(C)(C)C)C3)n2)c1 (centres undefined)	-10%
